UCH37 DUB inh = inhibitors of human UCH37 deubiquitinase, primary screen, biochemical, Ub-AMC cleavage, fluorescence; AID 588478, 2011; actives 0.33% (n = 330,000); Ubiquitin carboxyl-terminal hydrolase isozyme L5 (Homo sapiens), Q9Y5K5; purified proteasome/UCH37; inhibition, % (concentration not given with the values);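 active = mean of two replicates above 20%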;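 note: 0% = compound-free wells with enzyme and 100% = wells lacking proteasome; stock transfer was 100 nL into about 20 µL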
Target sequence (Q9Y5K5 whole entry, looked up): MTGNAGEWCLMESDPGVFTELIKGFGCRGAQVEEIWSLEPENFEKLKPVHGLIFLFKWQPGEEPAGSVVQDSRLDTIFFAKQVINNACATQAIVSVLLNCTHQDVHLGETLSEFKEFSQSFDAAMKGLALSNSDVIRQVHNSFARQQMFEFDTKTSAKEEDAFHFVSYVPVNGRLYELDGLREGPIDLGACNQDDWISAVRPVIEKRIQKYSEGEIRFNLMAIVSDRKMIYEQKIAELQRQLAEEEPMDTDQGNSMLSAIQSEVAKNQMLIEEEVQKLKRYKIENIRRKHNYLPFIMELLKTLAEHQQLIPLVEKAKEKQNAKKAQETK
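Material: Human UCH37 enzyme supplied as purified proteasome complex | Schedule: 30 min preincubation with enzyme, 25 min cleavage at room temperature | Detection: AMC fluorescence 355/460 nm | Measure: % inhibition of Ub-AMC cleavage fluorescence | Controls: Wells without proteasome as full block, compound-free enzyme plus substrate as uninhibited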
An asterisk follows results filed as active. A portion of the library, so the mix of outcomes need not match the whole.

UCH37 DUB inh,SMILES
2.0,CCOC(=O)C1=C(N)n2c(sc(=Cc3cccnc3)c2=O)=C(C(=O)OC)C1c1cccnc1 (stereo not given)
-0.4,CC(=NNC(=O)c1ccccn1)c1ccncc1
3.3,O=C(COc1ccc(C=NNC(=O)c2ccncc2)cc1)Nc1cccc([N+](=O)[O-])c1
1.3,Cc1c(C=Nn2cnnc2)c2ccccc2n1CCOc1ccc(Cl)cc1
-35,CCOC(=O)c1cc(C)sc1N=CC1C(=O)CC(C)(C)CC1=O
4.2,O=[N+]([O-])c1cccc(C(=NN=Cc2ccccc2Br)C23CN4CN(CN(C4)C2)C3)c1
1.6,COc1ccc(N(CC(=O)NN=Cc2ccccc2OC)S(=O)(=O)c2ccccc2)cc1
5.0,O=C(NN=Cc1ccncc1)c1cc([N+](=O)[O-])cc([N+](=O)[O-])c1O
5.8,O=S(=O)(N=C(Sc1ccccc1)c1ccccc1)c1ccccc1
7.6,COc1cccc(C=NNC(=O)C2=NNC(=O)C2C)c1O (stereo not given)
5.7,Cn1c(=O)[nH]c(=O)c2c1nc(N1CCCCC1)n2CC=NNc1ccc(C(=O)O)cc1
-29,COc1cc(C=NNc2cc(C)nc(NS(=O)(=O)c3ccccc3)n2)ccc1O
4.3,CCc1ccc(C(=O)NN=Cc2ccncc2)s1
2.6,CON=C(c1ccccc1)c1cccnc1
-0.5,O=[N+]([O-])c1ccc(NN=Cc2ccccc2O)cc1
6.0,CCc1ccc(C=NNC(=O)c2ccccn2)cc1
8.9,COc1ccc(CC(=O)NN=Cc2cc([N+](=O)[O-])cc(Br)c2O)cc1
5.0,CSc1sc(C#N)c2c1C(=NO)CCC2
-1.2,CC(=NOC(=O)Nc1ccc(Cl)cc1)c1ncc(C(F)(F)F)cc1N1CCOCC1
-15,Cn1cc(C=NNC(=O)c2ccccc2O)c2ccccc21
-0.2,CCOC(=O)NN=C1CCS(=O)(=O)c2ccc(Cl)cc21
6.8,Cc1ccccc1C(=O)NN=Cc1ccsc1C
3.5,CCOc1ccc(C=NN2C(=O)C(CC(=O)Nc3ccc(F)cc3F)SC2=NC)cc1OC (stereo not given)
-0.8,CC(=NNC(=O)c1ccn(C)n1)c1cccc(NC(=O)c2ccc(C)s2)c1
-1.8,CCOC(=O)NN=C1CC(C)CC(C)(C)C1 (stereo not given)
-27,CNC(=S)NN=C(C)c1ccc(C(C)(C)C)cc1
2.4,O=[N+]([O-])c1cccc(C=NNC2CCS(=O)(=O)C2)c1 (stereo not given)
-0.9,Cc1cc(NN=Cc2ccccc2Cl)nc(NCc2ccccc2)n1
-0.4,CC1=CC(=NS(=O)(=O)c2ccccc2)C(C(C)C)=CC1=O
9.0,Clc1cnc(NN=Cc2ccco2)c(Cl)c1

Some of the entries so far, with tabs:
SMILES	UCH37 DUB inh
CC1=CC(=NS(=O)(=O)c2ccccc2)C(C(C)C)=CC1=O	-0.4
O=[N+]([O-])c1cccc(C=NNC2CCS(=O)(=O)C2)c1 (stereo not given)	2.4
CC(=NOC(=O)Nc1ccc(Cl)cc1)c1ncc(C(F)(F)F)cc1N1CCOCC1	-1.2

Additional compounds
UCH37 DUB inh,SMILES
-14,Cc1cc(=O)[nH]c(NN=Cc2ccccc2Cl)n1
6.1,CC(C)c1ccc(C=NNC(=O)c2ccc(Cn3cccn3)o2)cc1
3.0,Cc1ccc(S(=O)(=O)N2CCC(C(=O)NN=Cc3cccn3C)CC2)cc1
9.2,COc1ccc(-c2cnnc(NN=Cc3ccc(-c4ccc([N+](=O)[O-])cc4)o3)n2)cc1
-0.1,COc1ccc(C(=O)Oc2ccc(C=NO)cc2)cc1
4.8,Fc1ccccc1C=NNc1ccc(Cl)nn1
4.5,COc1ccc(NC(=O)CON=C2CCCc3nonc32)cc1
6.1,COc1cc(C=NN2C(=O)C3C4c5ccccc5C(c5ccccc54)C3C2=O)ccc1O (stereo not given)
2.8,O=[N+]([O-])c1cccc(C=NN=C2c3ccccc3-c3ccccc32)c1O
3.7,O=C(CSc1ncccn1)NN=Cc1cccs1
-3.7,COc1cc(C=NNc2nc3ccccc3[nH]2)cc(OC)c1O
-11,COc1ccc(O)c(C=NNC(=O)CCC(=O)Nc2ccc(C)cc2)c1
1.1,O=C(NC=NO)C1=NOC(CNc2ncc(C(F)(F)F)cc2Cl)C1 (stereo not given)
6.4,CC(CC(=O)N(C(C)C)C(C)C)=NNC(=O)COc1ccc(Br)cc1Br
1.6,Cc1ccc(-c2c(C(=O)NN=Cc3cccnc3)nnn2-c2nonc2N)cc1
10,O=C(C[n+]1ccc(C(=O)NN=Cc2ccc(Cl)cc2Cl)cc1)c1ccccc1
2.6,CC(=NNC(=O)c1ccc(O)cc1)c1ccc2c(c1)OCCO2
1.7,C/C(C=NNC(=O)Cn1c(C)nc2ccccc21)=C\c1ccccc1
4.8,COC(=O)NN=C(C)/C=C/c1ccccc1
0.6,NC(=S)NN=Cc1ccccc1OCc1cccc(Cl)c1
3.9,O=C(CCCC(=O)Nc1ccccc1Br)NN=Cc1c(F)cccc1Cl
3.8,CCOc1ccccc1NC(=O)C(=O)NN=Cc1cc(Br)ccc1O
4.7,CC(CC(=O)Nc1ccc(C)c(Cl)c1)=NNC(=O)c1ccco1
4.9,CC(=NOC(=O)C1CC1c1ccccc1)c1ccccc1 (stereo not given)
-1.8,COc1ccccc1C=NNS(=O)(=O)c1ccccc1
4.1,Cc1[nH]n(-c2ccccc2)c(=O)c1C=NN(C)c1ccccc1
9.5,O=C(O)COc1ccccc1C=NNC(=O)CSc1nc2ccccc2n1Cc1ccccc1Cl
1.3,Fc1ccc(C=NNC(=S)Nc2ccc(Cl)cc2Cl)cc1
2.8,Nc1nonc1-n1nnc(C(=O)NN=Cc2ccccc2O)c1CN1CCCC1
-2.2,Cc1cc(C=NO)c(C)n1-c1ccccc1
6.4,Cc1ccc(CN2CCN(CC(=O)NN=Cc3c[nH]c4ccccc34)CC2)cc1
2.4,Cc1ccc(S(=O)(=O)NN=Cc2cc([N+](=O)[O-])ccc2Cl)cc1
3.9,COc1ccc(N(CC(=O)NN=C(C)c2cccs2)S(=O)(=O)c2ccccc2)cc1Cl
8.1,O=C(NN=Cc1ccc(O)c(O)c1O)/C(=C/c1ccc([N+](=O)[O-])cc1)NC(=O)c1ccccc1
1.9,COc1ccc(C=NNC(=O)c2cccc(Br)c2)cc1COc1ccccn1
-0.1,CC1CCCCC1=NNc1ccc([N+](=O)[O-])cc1[N+](=O)[O-] (stereo not given)
1.6,COc1ccc(C(C)=NNC(=O)CNC(=O)c2cccs2)cc1OC
1.6,CN(C)CCCON=C(c1ccccc1)c1ccncc1
2.3,CN(C)c1ccc(C=Nc2cc(-c3ccccc3)nn2-c2ccccc2)cc1
9.0,Cc1ccc2nc(C(C#N)=NO)[nH]c2c1
4.8,Cc1cc(C)n(N=Cc2cccc(O)c2)c(=O)c1C(N)=O
1.4,CON=CC(=NNc1ccc(OC)cc1)C(=O)c1ccccc1
3.2,Cc1[nH]c2ccccc2c1C=NNc1nc(Nc2ccc(F)cc2)nc(N2CCOCC2)n1
5.7,Nc1nonc1NN=Cc1ccccc1
6.6,Cc1ccc(C=NNC(=O)c2cccnc2)o1
-1.0,CC(=NOC(=O)c1ccc(Cl)cc1Cl)c1oc(C)nc1C
-0.5,O=C(O)c1ccc(C=NN2CCN(C3c4ccccc4-c4ccccc43)CC2)cc1
4.1,COc1ccc(C=NNC(=O)c2cccc([N+](=O)[O-])c2)cc1Cn1cc([N+](=O)[O-])cn1
5.0,COc1cc(C=NNC(=O)C(C)n2nnc3ccccc32)ccc1O (stereo not given)
7.4,O=C(O)c1cc(NN=Cc2ccc3c(c2)OCO3)ccc1Cl
1.4,O=C(Cn1cc(C(F)(F)F)ccc1=O)NN=Cc1ccccc1
11,Cn1c(SCC(=O)NN=C/C=C/c2ccco2)nc2ccccc21
-3.2,COc1c(Cl)cc(Cl)cc1C=Nn1cnnc1
11,Cc1ccc(NN=C(C#N)C(=N)N2CCCCC2)cc1
1.9,Br/C(C=NN1CCN(Cc2ccccc2)CC1)=C\c1ccccc1
6.2,COc1ccc(CCNC(=O)C(=O)NN=Cc2cccs2)cc1OC
19,O=S(=O)(N=S1CC=CCN1S(=O)(=O)c1ccccc1)c1ccccc1 (stereo not given)
7.7,CCN(CC)C(=O)C1CCCN(c2ccc([N+](=O)[O-])cc2C=NNC(=O)c2cccc([N+](=O)[O-])c2)C1 (stereo not given)
2.7,COC(=O)NN=Cc1cn(CCOc2ccc(OC)cc2)c2ccccc12
4.9,COc1ccc(-c2nn(-c3ccccc3)cc2C=NN2C(=O)CSC2=S)cc1

Gathered by group: those above containing fluorine
UCH37 DUB inh,SMILES
-1.2,CC(=NOC(=O)Nc1ccc(Cl)cc1)c1ncc(C(F)(F)F)cc1N1CCOCC1
3.5,CCOc1ccc(C=NN2C(=O)C(CC(=O)Nc3ccc(F)cc3F)SC2=NC)cc1OC (stereo not given)
4.8,Fc1ccccc1C=NNc1ccc(Cl)nn1
1.1,O=C(NC=NO)C1=NOC(CNc2ncc(C(F)(F)F)cc2Cl)C1 (stereo not given)
3.9,O=C(CCCC(=O)Nc1ccccc1Br)NN=Cc1c(F)cccc1Cl
1.3,Fc1ccc(C=NNC(=S)Nc2ccc(Cl)cc2Cl)cc1
3.2,Cc1[nH]c2ccccc2c1C=NNc1nc(Nc2ccc(F)cc2)nc(N2CCOCC2)n1
1.4,O=C(Cn1cc(C(F)(F)F)ccc1=O)NN=Cc1ccccc1

More structures
UCH37 DUB inh,SMILES
-0.7,COc1ccc(C=NNC(=O)c2nc(-c3ccccc3)cc(-c3ccccc3)n2)cc1OC
-0.2,CCN(CC)S(=O)(=O)c1ccc(NN=Cc2ccc(O)cc2O)nc1
2.6,COC(=O)C1CC(=NNS(=O)(=O)c2ccc(C)cc2)c2ccsc2C1 (stereo not given)
-0.9,O=C(NN=Cc1ccsc1)c1ccc2ccccc2n1
1.8,CCOC(=O)C(C#N)=NNc1ccccc1OC
2.8,Cc1[nH]c2ccccc2c1C=NNC(=O)CCC(=O)NCc1ccccc1
0.2,CC(=NNC(=S)NCCc1ccccc1)c1ccc(C)cc1
0.9,CCC(=NO)C(C)(C)/[N+]([O-])=C/c1ccc(Br)cc1
3.0,Cc1ccc2c(c1)C(=NOS(=O)(=O)c1ccccc1)CCS2
4.4,CC(=NNS(=O)(=O)c1ccc(Br)cc1)c1cccs1
5.7,CC(C)C1C(=NO)CC(c2ccccc2)NC1c1ccccc1 (stereo not given)
2.0,O=C(NN=Cc1ccccc1)c1[nH]c2ccc(Br)cc2c1-c1ccccc1
3.7,Cc1ccc(S(=O)(=O)NN=Cc2ccccc2O)cc1[N+](=O)[O-]
1.8,O=C(CNC(=O)c1ccc(S(=O)(=O)N2CCCC2)cc1)NN=Cc1c(Cl)cccc1Cl
-147,Nc1c(S(=O)(=O)c2cccs2)c2nc3ccccc3nc2n1N=Cc1cccc(O)c1
17,COc1cccc(C=NNc2ccccc2C(=O)O)c1O
2.2,Cc1nnc(C)n1N=Cc1cccn1C
-314,O=C(NN=Cc1ccc2cccc(OCc3ccccc3)c2n1)c1ccc(Cl)cc1
4.0,CN(Cc1c(C(=O)NN=Cc2ccc(F)cc2)nnn1-c1nonc1N)C1CCCCC1
-22,CCCc1c(C(=O)NN=Cc2ccc(OC)c(OCc3ccccc3)c2)nnn1-c1nonc1N
4.7,CC(C)(C)c1ccc(C2CC2C(=O)NN=Cc2cc3ccccc3nc2Cl)cc1 (stereo not given)
-9.1,C(=NNc1nc(N2CCCC2)nc(N2CCCC2)n1)c1ccncc1
1.3,COc1ccc(CC(=O)NCC(=O)NN=Cc2c[nH]c3ccccc23)cc1
-0.6,CCSc1ncc(C=NNc2ccc(Cl)cc2)n1C
4.9,NC(=NOC(=O)c1ccccc1Br)c1ccc([N+](=O)[O-])cc1
3.5,C=CCn1c(N=Cc2ccc3c(c2)OCO3)nc2ccccc21
3.0,COc1ccc(NC(=O)CC(C)=NNC(=O)c2ccncc2)c([N+](=O)[O-])c1
2.1,C=C(C)CSc1nncn1N=Cc1ccc(OC)cc1
5.6,COc1cccc(C=NNc2snc(SC)c2C#N)c1
-334,COc1ccc(C=NNC(=O)c2ccc(CN3c4cccc5cccc(c45)S3(=O)=O)cc2)cc1

Three entries out of the list, sorted by count of non-hydrogen atoms, descending:
UCH37 DUB inh,SMILES
-22,CCCc1c(C(=O)NN=Cc2ccc(OC)c(OCc3ccccc3)c2)nnn1-c1nonc1N
3.0,COc1ccc(NC(=O)CC(C)=NNC(=O)c2ccncc2)c([N+](=O)[O-])c1
3.5,C=CCn1c(N=Cc2ccc3c(c2)OCO3)nc2ccccc21

Some values from the results shown.
Reading for COc1cc(C=NNC(=O)C(C)n2nnc3ccccc32)ccc1O (stereo not given) under UCH37 DUB inh: 5.0
Reading for O=C(CCCC(=O)Nc1ccccc1Br)NN=Cc1c(F)cccc1Cl under UCH37 DUB inh: 3.9

Carrying on.
UCH37 DUB inh,SMILES
1.8,COc1cc(C=NNC(=O)C(C)Nc2n[nH]c(=O)[nH]c2=O)ccc1O (stereo not given)
6.4,Cc1[nH]c2ccccc2c1C=NNC(=O)Cc1cccs1
8.4,O=C(NN=Cc1ccc(Br)o1)/C(=C/c1ccc([N+](=O)[O-])cc1)NC(=O)c1ccccc1
5.9,CC(=NNC(=O)CNC(=O)c1cccs1)c1ccc(Cl)c(Cl)c1
2.9,Nc1ccc(C(=O)NN=Cc2ccc(OC(=O)c3ccccc3Cl)cc2)cc1
1.8,CCN(CC)C(=O)C[n+]1cccc(C=NO)c1
2.7,CC1CN(CCc2ccccc2)C(C)CC1=NO (stereo not given)
5.7,Cn1cc(C(=O)NN=C/C(Br)=C/c2ccccc2)ccc1=O
0.6,Cc1ccc(C=NNC(=O)c2cccnc2)s1
3.1,CCCN(CCC)Cc1c(C(=O)NN=CCCc2ccccc2)nnn1-c1nonc1N
12,O=C(NN=Cc1cc([N+](=O)[O-])cc([N+](=O)[O-])c1O)C(O)(c1ccccc1)c1ccccc1
